ID4 SMM: binds human ID4 protein on microarray; P47928; small molecule microarray, Flag-ID4 binding, fluorescence F/B; calls only; 31,000 tested, 1.2% active;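 active = spot signal over background at p below 0.07 in all four prints; compounds were printed on slides so no solution concentration is given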;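 note: a binder raises fluorescence above local background on the spot; about 2 pmol printed per array spot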
Target sequence (P47928 whole entry, looked up): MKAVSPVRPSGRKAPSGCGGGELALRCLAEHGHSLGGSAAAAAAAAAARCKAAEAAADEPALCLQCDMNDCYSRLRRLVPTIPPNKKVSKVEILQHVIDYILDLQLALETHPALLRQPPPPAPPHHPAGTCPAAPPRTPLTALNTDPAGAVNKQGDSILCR
p53 mut binder: mutant p53 (human) binding | 17,000 tested, 0.4% active | calls only | small molecule microarray binding, anti-GST fluorescence;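 active = compounds whose four printed spots each glow above background more than chance allows, each with a p-value under 7%; compounds were printed on slides so no solution concentration is given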;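 note: about 2 pmol printed per array spot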
Myc binder: c-Myc (human) binding; P01106; 17,000 tested, 1.5% active; AID 624141; calls only; small molecule microarray, His-c-Myc binding, anti-His fluorescence;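 active = spot fluorescence over background with P-value below 7% in all four replicate spots, showing protein binding; compounds were printed on slides so no solution concentration is given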;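 note: score is binary with 100 for all four spots passing and 0 otherwise; about 2 pmol printed per array spot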
STAT3 SMM: binds human STAT3 on microarray | P40763 | Small molecule microarray, His-STAT3 binding, anti-His fluorescence | calls only | 17,000 tested, 0.2% active;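 active = compounds whose four printed spots each show fluorescence over background unusually high for their array block, chance value under 7%; compounds were printed on slides so no solution concentration is given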;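 note: about 2 pmol printed per array spot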
Target sequence (P40763 whole entry, looked up): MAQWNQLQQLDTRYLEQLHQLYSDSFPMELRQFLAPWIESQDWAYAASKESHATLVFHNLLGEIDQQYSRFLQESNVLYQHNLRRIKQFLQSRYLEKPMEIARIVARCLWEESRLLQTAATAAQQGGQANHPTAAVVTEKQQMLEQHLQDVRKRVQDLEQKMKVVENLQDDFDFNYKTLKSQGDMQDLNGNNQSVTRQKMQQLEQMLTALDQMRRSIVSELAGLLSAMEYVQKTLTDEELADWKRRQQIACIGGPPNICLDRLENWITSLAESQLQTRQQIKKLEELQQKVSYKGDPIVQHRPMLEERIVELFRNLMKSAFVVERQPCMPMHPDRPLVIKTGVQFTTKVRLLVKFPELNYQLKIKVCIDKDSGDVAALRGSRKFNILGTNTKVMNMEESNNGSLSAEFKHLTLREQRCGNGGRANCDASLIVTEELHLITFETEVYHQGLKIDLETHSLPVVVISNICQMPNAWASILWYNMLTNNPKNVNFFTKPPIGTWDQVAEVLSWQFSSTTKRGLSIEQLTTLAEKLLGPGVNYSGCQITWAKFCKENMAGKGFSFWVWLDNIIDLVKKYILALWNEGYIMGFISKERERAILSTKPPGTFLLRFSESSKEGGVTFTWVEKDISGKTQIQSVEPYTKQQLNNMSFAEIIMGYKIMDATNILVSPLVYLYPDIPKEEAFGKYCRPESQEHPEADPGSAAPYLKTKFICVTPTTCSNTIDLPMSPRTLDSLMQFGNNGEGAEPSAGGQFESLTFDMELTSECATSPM
Calls only; i = inactive; / = no result given; + = active, no number.

| smiles | ID4 SMM | p53 mut binder | Myc binder | STAT3 SMM |
| --- | --- | --- | --- | --- |
| COc1cccc(S(=O)(=O)N(C)C[C@@H]2OCc3cnnn3CCCC(=O)N([C@@H](C)CO)C[C@@H]2C)c1 | / | i | i | i |
| COc1ccc(C2(O)c3ccccc3NC(=O)C2O)cc1 (configuration not stated) | / | i | i | i |
| C[C@@H]1CN([C@H](C)CO)C(=O)c2cccc(NC(=O)C3CCOCC3)c2O[C@H]1CN(C)C(=O)Nc1ccc(C(F)(F)F)cc1 | i | i | i | i |
| CC(=O)Nc1cccc(Cn2cccn2)c1 | i | i | i | i |
| CCCCCCCCCCCCCCCCCCc1ccc(C(=O)/C=C/C(=O)O)cc1 | / | i | i | i |
| C[C@H](CO)N1C[C@H](C)[C@H](CN(C)C(=O)Nc2ccccc2)Oc2c(NC(=O)NC3CCCCC3)cccc2C1=O | i | i | i | i |
| C[C@H]1CN([C@@H](C)CO)C(=O)c2cccc(NC(=O)Nc3cccc4ccccc34)c2O[C@@H]1CN(C)C(=O)Nc1cccc2ccccc12 | i | i | i | i |
| CNC[C@@H]1Oc2ccc(NC(=O)Cc3cn(C)c4ccccc34)cc2CC(=O)N([C@H](C)CO)C[C@@H]1C | i | i | i | i |
| COC(=O)[C@H](Cc1ccccc1)N1CC2=C[C@H](C3CC3)n3c(=O)n(C)c(=O)n3[C@@H]2[C@H]1[C@H](O)Cc1ccccc1 | i | i | i | i |
| CNC[C@H]1Oc2ccc(N(C)C)cc2CC(=O)N([C@H](C)CO)C[C@H]1C | i | i | i | i |
| Cc1cc(C(=O)Nc2cccc3c2O[C@@H](CN(C)C(=O)NC2CCCCC2)[C@@H](C)CN([C@@H](C)CO)C3=O)n(C)n1 | i | i | i | i |
| C[C@H](CO)N1C[C@H](C)[C@H](CN(C)Cc2ccncc2)Oc2ccc(NC(=O)NC3CCCCC3)cc2C1=O | i | i | i | i |
| O=[N+]([O-])c1ccccc1S(=O)(=O)N1CCN(S(=O)(=O)Cc2ccccc2)CC1 | i | i | i | i |
| C[C@@H]1CN([C@H](C)CO)C(=O)c2cc(NS(C)(=O)=O)ccc2O[C@@H](C)CCCCO[C@@H]1CN(C)S(=O)(=O)c1cn(C)cn1 | i | i | i | i |
| C[C@@H]1CN([C@@H](C)CO)C(=O)Cc2cc(NS(=O)(=O)c3ccc(Cl)cc3)ccc2O[C@@H]1CN(C)CC1CCCCC1 | i | i | i | i |
| OCCN(CCO)c1nc2ccccc2[nH]1 | i | i | i | i |
| COC(C(=O)Nc1ccccc1C(=O)N1CCOCC1)c1ccccc1 (configuration not stated) | i | i | i | i |
| CNC[C@H]1Oc2c(NC(=O)c3ccc(-c4nccs4)cc3)cccc2C(=O)N([C@@H](C)CO)C[C@H]1C | i | i | i | i |
| C[C@@H]1CN([C@H](C)CO)C(=O)c2cccc(NC(=O)Nc3ccc(F)cc3)c2O[C@@H]1CN(C)Cc1ccc(C(F)(F)F)cc1 | i | i | i | i |
| CC1CC(=O)[C@]2(O)C(C(=O)OCCc3ccc(O)c(O)c3)=CO[C@@H](O[C@@H]3O[C@H](CO)[C@@H](O)[C@H](O)[C@H]3O)[C@H]12 (some centres not stated) | / | i | i | i |

The final 5 records of the section before lead into the next:
| smiles | ID4 SMM | p53 mut binder | Myc binder | STAT3 SMM |
| --- | --- | --- | --- | --- |
| OCCN(CCO)c1nc2ccccc2[nH]1 | i | i | i | i |
| COC(C(=O)Nc1ccccc1C(=O)N1CCOCC1)c1ccccc1 (configuration not stated) | i | i | i | i |
| CNC[C@H]1Oc2c(NC(=O)c3ccc(-c4nccs4)cc3)cccc2C(=O)N([C@@H](C)CO)C[C@H]1C | i | i | i | i |
| C[C@@H]1CN([C@H](C)CO)C(=O)c2cccc(NC(=O)Nc3ccc(F)cc3)c2O[C@@H]1CN(C)Cc1ccc(C(F)(F)F)cc1 | i | i | i | i |
| CC1CC(=O)[C@]2(O)C(C(=O)OCCc3ccc(O)c(O)c3)=CO[C@@H](O[C@@H]3O[C@H](CO)[C@@H](O)[C@H](O)[C@H]3O)[C@H]12 (some centres not stated) | / | i | i | i |
| CC(C)C[C@@H]1NC(=O)[C@@H]2C[C@H](C(=O)NCc3ccc(F)cc3)[C@H](c3cccc(OCCO)c3)N2C1=O | i | i | i | i |
| O=C(CC1(O)C(=O)Nc2ccccc21)c1ccc(OCC(=O)N2CCOCC2)cc1 (configuration not stated) | i | i | i | i |
| COc1ccc(-c2nn(C)c(=O)c3ccccc23)cc1CNC(=O)Nc1ccccc1 | i | i | i | i |
| COc1ccc(NC(=O)CSc2nnnn2-c2ccc(OC)cc2)cc1 | i | i | i | i |
| Cc1nnc2sc(-c3cccc(NC(=O)c4cccnc4)c3)nn12 | i | i | i | i |
| C[C@@H]1CCCCO[C@@H](CN(C)C(=O)Nc2ccc(C(F)(F)F)cc2)[C@@H](C)CN([C@H](C)CO)C(=O)c2cc(NC(=O)c3ccccc3)ccc2O1 | / | i | i | i |
| Cc1ccc(S(=O)(=O)Nc2ccc3c(c2)CC(=O)N([C@@H](C)CO)C[C@@H](C)[C@@H](CN(C)Cc2ccncc2)O3)cc1 | i | i | i | i |
| CNC[C@@H]1Oc2ncc(-c3ccc(F)cc3)cc2C(=O)N([C@H](C)CO)C[C@@H]1C | i | i | i | i |
| C[C@H](CO)N1C[C@H](C)[C@H](CN(C)CC2CC2)Oc2c(NC(=O)C3CCOCC3)cccc2C1=O | i | i | i | i |
| Cc1noc(C)c1NC(=O)Nc1ccc2c(c1)CC(=O)N([C@H](C)CO)C[C@H](C)[C@@H](CN(C)S(=O)(=O)c1ccccc1)O2 | i | i | i | i |
| C[C@H](CO)N1C[C@H](C)[C@@H](CN(C)S(=O)(=O)c2ccccc2)Oc2ccc(NS(=O)(=O)c3ccc(Cl)cc3)cc2C1=O | / | i | i | i |
| Cc1ccc(CNC(=O)c2cccc(Cn3cc(Cl)cn3)c2)cc1 | i | i | i | i |
| COc1cc(S(C)=O)ccc1-c1nc2ccncc2[nH]1 (configuration not stated) | i | i | i | i |
| COc1cc(NC(=O)CCN2CCN(C)CC2)cc(OC)c1 | i | i | i | i |
| CC(=O)c1cc2ccccc2oc1=O | i | i | i | i |
| COc1ccc(NC(=O)N(C)C[C@H]2Oc3c(NC(=O)C4CCOCC4)cccc3C(=O)N([C@@H](C)CO)C[C@@H]2C)cc1 | / | i | i | i |
| C[C@H](CO)N1C[C@H](C)[C@@H](CN(C)C(=O)Nc2ccc(C(F)(F)F)cc2)Oc2c(NC(=O)NC3CCCCC3)cccc2C1=O | i | i | + | i |
| Cc1cc(C(=O)Nc2cccc3c2O[C@H](CN(C)Cc2ccc4c(c2)OCO4)[C@@H](C)CN([C@H](C)CO)C3=O)n(C)n1 | i | i | i | i |
| COc1cc(CNC23CC4CC(CC(C4)C2)C3)ccc1OCC(N)=O | + | i | i | i |
| C[C@H](CO)N1C[C@H](C)[C@@H](CN(C)Cc2ccc(C(F)(F)F)cc2)Oc2c(NC(=O)Nc3ccc(F)cc3)cccc2C1=O | i | i | i | i |
| C=CCOC(=O)C1=C[C@@H](c2csc3ccccc23)C[C@@H](OCCCCO)O1 | / | i | i | i |
| C[C@@H]1CCCCO[C@@H](CN(C)C(=O)CCC(F)(F)F)[C@H](C)CN([C@H](C)CO)C(=O)c2cc(NS(C)(=O)=O)ccc2O1 | i | i | i | i |
| COc1ccc(NC(=O)Nc2ccc3c(c2)CC(=O)N([C@H](C)CO)C[C@@H](C)[C@@H](CN(C)S(=O)(=O)c2ccc(Cl)cc2)O3)cc1 | i | i | i | i |
| CC1(C)CC[C@]2(C(=O)O[C@@H]3O[C@H](CO)[C@@H](O)[C@H](O)[C@H]3O)CC[C@]3(C)C(=CCC4[C@@]5(C)C[C@H](O)[C@H](O[C@@H]6O[C@H](C(=O)O)[C@@H](O)[C@H](O)[C@H]6O)[C@@](C)(CO)C5CC[C@]43C)C2C1 (some centres not stated) | i | i | i | i |
| O=C1O[C@H](c2ccccc2)[C@H](c2ccccc2)N2[C@H]1[C@@H](C(=O)NC[C@H](O)c1ccccc1)[C@]1(C(=O)Nc3ccccc31)[C@H]2c1ccccc1OCCO | i | i | i | i |
| C[C@H]1CN([C@@H](C)CO)C(=O)c2cccc(NC(=O)c3cnccn3)c2O[C@@H]1CN(C)C(=O)NC1CCCCC1 | i | i | i | i |
| C[C@@H]1CN([C@H](C)CO)C(=O)CCCn2nncc2CO[C@@H]1CN(C)S(=O)(=O)c1ccc(-n2cccn2)cc1 | / | i | i | i |
| COC(=O)c1ccc(C(=O)OC)c(NC(=O)CSc2nc(C)cc(C)n2)c1 | i | i | i | i |
| C[C@@H]1CN([C@H](C)CO)C(=O)c2cc(NC(=O)NC3CCCCC3)ccc2O[C@H]1CN(C)S(=O)(=O)c1cn(C)cn1 | i | i | i | i |
| C[C@H]1CN([C@@H](C)CO)C(=O)Cc2cc(N(C)C)ccc2O[C@H]1CN(C)Cc1ccncc1 | i | i | i | i |
| C=C[C@H]1C(O[C@@H]2O[C@H](CO)[C@@H](O)[C@H](O)[C@H]2O)OC=C2C(=O)N3CCc4c([nH]c5ccccc45)[C@H]3C[C@H]21 (some centres not stated) | / | i | i | i |
| CCOc1cc(C(=O)O)cc(I)c1OCC(=O)O | i | i | + | i |
| CCc1nnc(NS(=O)(=O)c2ccc(NC(=O)c3ccc(F)cc3)cc2)s1 | i | i | i | i |
| COC(=O)c1ccccc1NC(=O)Cn1c(SC)c(F)cnc1=O | i | i | i | i |
| CNC[C@H]1Oc2ccc(NC(=O)NC(C)C)cc2CC(=O)N([C@@H](C)CO)C[C@@H]1C | i | i | i | i |
| C[C@@H]1CN([C@H](C)CO)C(=O)c2cc(NC(=O)Nc3ccc4c(c3)OCO4)ccc2O[C@@H]1CN(C)S(=O)(=O)c1ccc(F)cc1 | i | i | i | i |
| C[C@@H]1CN([C@H](C)CO)C(=O)Cc2cc(NC(=O)Cc3ccccc3)ccc2O[C@@H]1CN(C)Cc1ccc(C(=O)O)cc1 | i | i | i | i |
| C[C@@H]1CN([C@H](C)CO)C(=O)c2cc(NS(=O)(=O)c3cn(C)cn3)ccc2O[C@@H]1CN(C)C(=O)Nc1ccc(C(F)(F)F)cc1 | / | i | i | i |
| C[C@@H]1CCCCO[C@@H](CN(C)C(=O)CCC(F)(F)F)[C@@H](C)CN([C@@H](C)CO)C(=O)c2cc(NC(=O)Nc3ccc4c(c3)OCO4)ccc2O1 | i | i | i | i |
| C[C@H]1CN([C@@H](C)CO)C(=O)Cc2cc(NC(=O)Cc3cn(C)c4ccccc34)ccc2O[C@@H]1CN(C)Cc1ccncc1 | i | i | i | i |

(more compounds)
Molecule	ID4 SMM	p53 mut binder	Myc binder	STAT3 SMM
Cc1ccc(NC(=O)C(C)Oc2ccc(Cl)cc2Cl)c([N+](=O)[O-])c1 (configuration not stated)	i	i	i	i
C[C@@H]1CN([C@H](C)CO)C(=O)c2cccc(NC(=O)c3nc4ccccc4s3)c2O[C@H]1CN(C)C(=O)Nc1cccc2ccccc12	+	i	i	i
C[C@H]1CN([C@@H](C)CO)C(=O)c2cc(NC(=O)Cn3cnnn3)ccc2O[C@H]1CN(C)S(=O)(=O)c1cccs1	i	i	i	i
C[C@@H]1CN([C@@H](C)CO)C(=O)Cc2cc(NC(=O)Cn3cnnn3)ccc2O[C@H]1CN(C)S(=O)(=O)c1cn(C)cn1	/	i	i	i
O=C1O[C@H](c2ccccc2)[C@H](c2ccccc2)N2[C@H]1[C@@H](C(=O)N1CCCCCCC1)[C@]1(C(=O)Nc3ccc(C#CC4=CCCCC4)cc31)[C@H]2c1ccc(O)cc1	i	i	i	i
CCOc1ccc(OCC)c(S(=O)(=O)NC2CC(C)(C)NC(C)(C)C2)c1	i	i	i	i
COc1ccc(S(=O)(=O)Nc2ccc3c(c2)CC(=O)N([C@@H](C)CO)C[C@H](C)[C@H](CN(C)S(=O)(=O)c2ccc(OC)cc2)O3)cc1	i	i	i	i
C[C@@H]1CN([C@@H](C)CO)C(=O)Cc2cc(NC(=O)CCCN(C)C)ccc2O[C@H]1CN(C)C(=O)Nc1ccc(F)cc1	+	i	i	i
CNC[C@H]1Oc2c(NS(=O)(=O)c3cccs3)cccc2C(=O)N([C@H](C)CO)C[C@@H]1C	i	i	i	i
C#CCN(CC=C(C)C)[C@H](CO)c1ccccc1	i	i	i	i
CCOc1ccc2nc(SCC(=O)Nc3c(C)n(C)n(-c4ccccc4)c3=O)sc2c1	i	i	i	i
O=C(NCCN1CCOCC1)c1cc(-n2cnnc2)ccc1Cl	i	i	i	i
COc1cc(C)c(C)cc1S(=O)(=O)n1c(C)nc2ccccc21	i	i	i	i
C[C@@H]1CN([C@H](C)CO)C(=O)c2cccc(NC(=O)C3CCOCC3)c2O[C@@H]1CN(C)C(=O)Nc1ccc2c(c1)OCO2	i	i	i	i
CCOc1ccccc1Nc1nc(N)nc(CN2CCCCC2C)n1 (configuration not stated)	i	i	i	i
C[C@H](CO)N1C[C@H](C)[C@H](CN(C)S(=O)(=O)c2cn(C)cn2)Oc2c(NS(=O)(=O)c3cn(C)cn3)cccc2C1=O	i	i	i	i
CC(C)c1ccc2c(c1)CCC1[C@](C)(C(=O)O)CCC[C@]21C (some centres not stated)	i	i	i	i
COc1ccc(C#Cc2ccc3c(c2)[C@]2(C(=O)N3)[C@H](C(=O)N3CCN(c4ncccn4)CC3)[C@H]3C(=O)O[C@H](c4ccccc4)[C@H](c4ccccc4)N3[C@@H]2c2ccc(OCCO)cc2)cc1	i	i	i	i

Compounds as they come; 3.7% or so of the library scored in one or more.
